ClpP mod: qHTS Assay for Activators of ClpP; AID 651965, 2013; ATP-dependent Clp protease proteolytic subunit (Bacillus subtilis (strain 168)), P80244; purified B. subtilis ClpP, FRET peptide cleavage, 20 min; Potency, µM (doses to about 57.5 µM), inactives show top-dose activity change, negative = active; 1.9% of 340,000 active; active = well fitted falling curve with a large enough effect; inconclusive = small, poorly fitted or top-dose-only effect; inactive = no such curve, though single readings can be large or run the other way; note: potency is the fitted concentration of half-maximal effect; the source files actives as falling curves though it sought activators and does not explain the sign; nearly all actives have a fitted effect of over 65% in size; many hits overshoot -100%
Target sequence (P80244 whole entry, looked up): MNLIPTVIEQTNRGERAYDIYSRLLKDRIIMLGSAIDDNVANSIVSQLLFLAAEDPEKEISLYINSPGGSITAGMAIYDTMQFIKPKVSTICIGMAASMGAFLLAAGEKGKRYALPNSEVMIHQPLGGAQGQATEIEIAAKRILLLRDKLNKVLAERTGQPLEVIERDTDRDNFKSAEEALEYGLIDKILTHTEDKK
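Purified B. subtilis ClpP, 10 microg/mL final in Tris/HCl pH8 with KCl, BSA, glycerol and Tween-20, cleaved an Abz/nitrotyrosine-quenched decapeptide. Fluorescence (ex 320, em 430) was read at 0 and 20 min at room temperature. Delta was normalized to 5.8 microM ADEP and DMSO/no-enzyme controls.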
gsp ag: agonists of gsp mutant (McCune-Albright syndrome) | 0.13% of 340,000 active | Potency, µM (top dose mostly 76.9 µM), without a hit: at the top dose activation (cAMP increase), most hits filed as activators | gsp mutant cells, cAMP HTRF, 30 min; control for the full effect not named in the record | AID 624287; active = well fitted activation curve with a large enough effect; inconclusive = small, poorly fitted or top-dose-only effect, or another doubt; inactive = no such curve, though single readings can be large or run the other way; cell line not stated here;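 note: phosphodiesterase inhibitor Ro 20-1724 added with compounds to block cAMP breakdown; potency is the fitted concentration of half-maximal effect; nearly all actives have a fitted effect of over 60% in size; about a fifth of the inactives were tested at one dose only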
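Cells stably selected in G418 were plated at 2000/well, grown 16-24 hr, then given compounds in DMSO with the PDE inhibitor […] (300 uM solution added) for 30 min at 37C; cAMP was read by HTRF.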
Menin-MLL FL inh: menin-MLL binding inhibition, fluorescein peptide; Fluorescence polarization, fluorescein-MLL peptide displacement from menin; FP activity change, % at 61.4 µM; 290,000 tested, under 10 active; AID 1766; inconclusive = falling polarisation curve, or a change in total fluorescence; inactive = total fluorescence flat and polarisation flat or rising; no compound was filed as active; the % refers to the polarisation; negative = inhibition;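 note: % of control where 0% means no effect; inhibitors lower the polarisation; unlabelled MLL peptide was the positive control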
gsp antagonist: antagonizes gsp, the McCune-Albright syndrome mutation. gsp-mutant cells, cAMP HTRF, 30 min; control for the full effect not named in the record. Potency, µM (top dose mostly 76.9 µM), for the others: at the top dose activity change, negative = inhibition, most hits filed as inhibitors. 0.4% of 340,000 active; active = falling curve of any shape with a large fitted effect; inconclusive = falling curve, mostly with a smaller effect; inactive = flat or rising curve; cell line not stated here;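 note: intracellular cAMP measured with PDE inhibitor Ro 20-1724 present during compound exposure; potency is the fitted concentration of half-maximal effect; % is set by controls: 0 for no effect and ±100 for the full control effect; nearly all actives have a fitted effect of over 65% in size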
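Cells in G418 medium, seeded 16-24 h, 37C; buffer exchange to DPBS + 1 mM CaCl2, 0.5 mM MgCl2, 0.05% BSA; cpds in DMSO + […] (300 uM stock), 30 min 37C; HTRF cAMP detection.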
TRPV1 PAM: enhances activation of the human vanilloid receptor TRPV1 | TRPV1-expressing cells, Fluo-8 calcium influx, capsaicin EC20 potentiation; host cell line not named in the record; control for the full effect not named in the record | potentiation, % at 8.33 µM | 0.02% of 320,000 active | AID 540277; active means potentiation above 80%; inconclusive means 30% to 80%; inactive means below 30%; note: 0% is about no effect
Target sequence (Q8NER1 whole entry, looked up): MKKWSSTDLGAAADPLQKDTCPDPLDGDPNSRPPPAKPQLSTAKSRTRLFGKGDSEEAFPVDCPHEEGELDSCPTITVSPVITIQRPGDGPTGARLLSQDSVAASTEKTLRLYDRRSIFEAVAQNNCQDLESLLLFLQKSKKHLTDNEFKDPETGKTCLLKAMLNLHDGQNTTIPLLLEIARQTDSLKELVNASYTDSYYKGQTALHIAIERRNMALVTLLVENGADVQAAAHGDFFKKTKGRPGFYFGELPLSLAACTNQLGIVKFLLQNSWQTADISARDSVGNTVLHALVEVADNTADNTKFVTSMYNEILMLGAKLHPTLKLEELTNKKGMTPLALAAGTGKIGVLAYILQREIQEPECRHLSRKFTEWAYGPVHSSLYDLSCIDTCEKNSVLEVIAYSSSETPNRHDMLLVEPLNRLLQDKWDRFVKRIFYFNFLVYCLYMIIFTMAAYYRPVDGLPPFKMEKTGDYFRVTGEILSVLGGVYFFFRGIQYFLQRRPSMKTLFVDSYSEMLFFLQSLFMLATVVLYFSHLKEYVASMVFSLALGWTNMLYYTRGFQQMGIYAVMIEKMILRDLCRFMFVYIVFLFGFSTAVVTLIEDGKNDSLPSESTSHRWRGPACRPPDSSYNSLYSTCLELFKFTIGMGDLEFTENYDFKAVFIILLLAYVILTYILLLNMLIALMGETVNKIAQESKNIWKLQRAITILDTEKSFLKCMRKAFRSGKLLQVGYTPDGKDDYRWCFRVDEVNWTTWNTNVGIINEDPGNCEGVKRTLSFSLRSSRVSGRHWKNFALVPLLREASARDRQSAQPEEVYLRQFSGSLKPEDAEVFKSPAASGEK
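Cells expressing TRPV1 were dye-loaded with Fluo-8 and read kinetically: 10 s baseline, 3 min after compound (agonist portion), then 2 min after EC20 capsaicin (allosteric enhancer portion). Calcium-bound dye fluorescence at 480/520 nm.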
D2 PAM: potentiates the human D2 dopamine receptor allosterically. P14416. potentiation, % (no concentration beside the values). 0.23% of 360,000 active. DiscoveRx D2 beta-arrestin cells, luminescence, 90 min; 100% = 57 uM dopamine signal; active = potentiation of 50% or more; inconclusive = 30% to 50%; inactive = 30% or less;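 note: compound concentration not given in the record; tested on top of an EC20 dose of dopamine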
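PathHunter beta-arrestin assay in DiscoveRx D2 cells. Compounds were added with an EC20 of dopamine (50 nM final) for 90 min at 37 deg C. Luminescence was read 1 h after detection reagent, with 57 uM dopamine as the EC100 control.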
Sfp inh: Sfp phosphopantetheinyl transferase inhibition | 3.5% of 310,000 active | Potency, µM, for the others: max response, negative = inhibition, actives largely listed as inhibitors | Biochemical Sfp PPTase activity, qHTS | Q9F4F7; active = well fitted inhibition curve with a large enough effect; inconclusive = small, poorly fitted or top-dose-only effect, or another doubt; inactive = no such curve, though single readings can be large or run the other way;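 note: the enzyme is Sfp with the accession as filed and its product quenches rhodamine fluorescence; potency is the fitted concentration of half-maximal effect; 0% = enzyme reaction without inhibitor and -100% = no enzyme wells; top concentration of the series not given in the record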
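After 15 min at room temperature with compound, 15 nM Sfp received 5 uM rhodamine-CoA plus 12.5 uM BHQ-2-ybbR (50 mM Hepes pH 7.6, 10 mM MgCl2). Rate came from the fluorescence difference over 30 min, ex 525/em 598 nm.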
An asterisk follows results filed as active; ? = inconclusive; . = not tested or not shown; & = joins results of further samples; [ ] = dose if it differs, or a comment.

SMILES	ClpP mod	gsp ag	Menin-MLL FL inh	gsp antagonist	TRPV1 PAM	D2 PAM	Sfp inh
Cc1cc(C)nc(N/N=C/c2ccccc2OCc2ccc(Br)cc2)n1	-1.4%	-13%	13	3%	-19	6	15%
CCN(CC)C(=O)CSc1nc2ccccc2c(=O)n1-c1cccc(OC)c1	-6.6%	4%	1.5	-3%	-5	-2	11%
O=C(OCc1nc2ccsc2c(=O)[nH]1)c1ccco1	1.8%	3%[15.4 µM]	.	7%	-2	-26	.
O=C(NCc1ccco1)c1cc2n(n1)C(C(F)(F)F)CC(c1ccc(Cl)c(Cl)c1)N2 (stereo not given)	-1.6%	21%	3.1	17%	18	-8	15%
CCOC(=O)Cc1nnc(Nc2ccc(C(=O)NC)cc2)c2ccccc12	.	-2%[15.4 µM]	0.6	5%	8	-3	12%
C/C(CC(=O)Nc1ccccn1)=N\NC(=O)c1cnccn1	27%	-17%	9.4	5%	-16	-14	45µM*
O=[N+]([O-])c1ccccc1CNCCCCCO	-7.0%	-9%	.	5%	16	0	.
Cc1nc(C(=O)Nc2ccccc2Cl)cc2c1[nH]c1ccccc12	-11%	-21%	1.4	12%	7	-6	-21%
CCS(=O)(=O)Nc1ccc(NC(C)=O)cc1	-0.2%	0%	-0.9	-1%	-3	?	1%
O=C(COC(=O)c1ccc(Cl)cc1[N+](=O)[O-])NCc1ccco1	-2.2%	19%	.	5%	.	1	.
Cn1c(-c2ccc(Cl)cc2)cnc1NCc1cc2c(cc1[N+](=O)[O-])OCO2	1.4%	?	-1.2	1%	9	-29	?
COc1ccc(CC(=O)OCC(=O)Nc2ccc3c(c2)OCCO3)cc1OC	0.7%	0%	4.4	5%	-22	-10	16%
Cc1ccccc1OCC(=O)Nc1ccc(N2CCOCC2)cc1N1CCOCC1	0.1%	-95%[inhibitor]	.	-18%	-12	0	.
O=C(O)c1ccc(N2C(=O)CC(N3CCN(c4cccc(C(F)(F)F)c4)CC3)C2=O)cc1 (stereo not given)	.	4%	2.9	-8%	6	-16	12%
CCCc1cc(=O)[nH]c(SCC(=O)Nc2ccc(C(=O)Nc3ccccc3OC)cc2)n1	1.0%	5%[15.4 µM]	.	-23%	.	-10	.

Retrieved one by one from the list above, 6 records:
SMILES	ClpP mod	gsp ag	Menin-MLL FL inh	gsp antagonist	TRPV1 PAM	D2 PAM	Sfp inh
O=C(O)c1ccc(N2C(=O)CC(N3CCN(c4cccc(C(F)(F)F)c4)CC3)C2=O)cc1 (stereo not given)	.	4%	2.9	-8%	6	-16	12%
O=C(OCc1nc2ccsc2c(=O)[nH]1)c1ccco1	1.8%	3%[15.4 µM]	.	7%	-2	-26	.
C/C(CC(=O)Nc1ccccn1)=N\NC(=O)c1cnccn1	27%	-17%	9.4	5%	-16	-14	45µM*
CCN(CC)C(=O)CSc1nc2ccccc2c(=O)n1-c1cccc(OC)c1	-6.6%	4%	1.5	-3%	-5	-2	11%
Cn1c(-c2ccc(Cl)cc2)cnc1NCc1cc2c(cc1[N+](=O)[O-])OCO2	1.4%	?	-1.2	1%	9	-29	?
Cc1nc(C(=O)Nc2ccccc2Cl)cc2c1[nH]c1ccccc12	-11%	-21%	1.4	12%	7	-6	-21%

Carrying on:
SMILES	ClpP mod	gsp ag	Menin-MLL FL inh	gsp antagonist	TRPV1 PAM	D2 PAM	Sfp inh
CC(C)(C)C1CCC(C(=O)Nc2cccnc2)CC1 (stereo not given)	.	-45%[inhibitor]	0.1	6%	-4	0	1%
CCOC(=O)N1CCC(NC(=O)C2CCN(c3ccc(N4CCOCC4)nn3)CC2)CC1	-16%	?	5.1	0%	7	0	5%
O=C(O)CCc1ccc(-c2ccc(F)cc2)n1Cc1ccco1	?	-16%	3.1	-13%	3	-9	-13%
CC1=C(C(=O)OC2CCCC2)C(c2coc3ccc(C)cc3c2=O)C2=C(CCCC2=O)N1 (stereo not given)	-4.4%	-5%	0.5	?	1	-14	0%
COc1ccc(NC(=O)c2ccc(CN3CCc4ccccc4C3)cc2)c(OC)c1	0.3%	-15%	5.3	-9%	4	-3	7%
CCN(CC)S(=O)(=O)c1c(Br)cc(C)cc1Br	0.1%	4%	0.4	-15%	-3	-4	12%
Cc1cc(=O)oc2c3c(cc(OCC(=O)NCc4ccco4)c12)OC(C)(C)CC3	4.5%	.	-0.2	-8%	-13	-11	-14%
CCCCOC(=O)c1ccc(Nc2ccc([N+](=O)[O-])cn2)cc1	-1.1%	2%	5.1	6%	-8	-6	7%
COc1ccc(C(=O)NC(=S)Nc2ccc(Cl)cn2)cc1OC	1.0%	-2%	-3.7	-17%	6	-1	?
CCNCCNC(=O)c1c(O)c2cccc3c2n(c1=O)CCC3	-14%	22%	6.0	-6%	-11	-22	12%
Cc1cccc2nc(CSC(=N)N)c(Br)n12	-0.1%	-5%[15.4 µM]	-0.3	11%	-11	-9	-9%
CCN(C(=O)COC(=O)CSc1ccc(C)cc1C)c1c(N)n(Cc2ccccc2)c(=O)[nH]c1=O	1.2%	0%	.	5%	.	-5	.
Cc1ccc(CNS(=O)(=O)c2c(C(=O)N3CCCCC3)c(C)n(C)c2C)cc1	-0.5%	9%	-3.8	6%	5	-7	8%
CC(C)CCn1c(N2CCC(C(N)=O)CC2)nc2c1c(=O)[nH]c(=O)n2C	-0.8%	-44%	0.0	1%	15	?	8%
Cc1cc(C(=O)OCC(=O)N2CCN(C(=O)c3ccco3)CC2)c(C)n1-c1ccc(F)cc1	0.9%	-32%[inhibitor]	1.9	8%	6	-7	-8%
Cc1cc(C)nc(N2CCCC(C(=O)Nc3ccc4c(c3)OCO4)C2)n1 (stereo not given)	-3.5%	-83%[inhibitor]	2.5	-8%	7	-14	4%
O=C(Cn1nc(-c2ccccc2)c2ccccc2c1=O)Nc1ccccn1	-1.6%	7%	-3.6	-7%[15.4 µM]	8	1	5%
Cc1ccc(C)c(NC(=O)COC(=O)c2cccc(S(=O)(=O)N3CCCC3)c2)c1	-1.2%	10%	.	.	.	-19	.
COCCNC(=O)c1onc(CSc2cccc(OC)c2)c1C(=O)NCCOC	-0.5%	?	.	6%	-23	-4	.
Cn1c(-c2ccc(Cl)nc2)nc2ccccc21	3.0%	5%	2.4	6%	-9	-8	14%
COCCn1c(SCC(=O)c2[nH]c(C)c(C(C)=O)c2C)nc2ccccc21	-0.2%	?	-0.9	-18%	-10	9	3%
COc1ccc(CN(C)C(=O)Cn2cnc3c(SC)nc(N)nc32)cc1OC	-24%	.	.	5%	.	-2	.
CCCOC(=O)c1ccc(-n2nnnc2SCC(=O)N2CCCCC2)cc1	-0.2%	-45%[inhibitor]	4.0	?	-4	-1	12%
CC1(C)CC(=O)C=C(NCc2cccs2)C1	-1.9%	-24%	-0.4	2%	-17	-10	11%
CCCS(=O)(=O)N1CCCC(C(=O)NCCc2ccccc2)C1 (stereo not given)	.	-16%	-2.6	5%	-13	-1	9%
COc1ccc(OCC(=O)Nc2ccccc2OC(F)F)cc1	-2.4%	13%	6.7	-2%	-6	0	-4%
CCOc1ccc(C2NC(=O)CCC2[N+](=O)[O-])cc1 (stereo not given)	1.7%	6%[15.4 µM]	-0.4	0%	2	-5	25%
CCOC(=O)c1sc(=S)n2c1[nH]c(=O)c1ccc(C(=O)OC)cc12	0.6%	-45%[inhibitor]	0.8	?	-3	6	16µM*
CCc1ccc(Nc2n[n+](-c3ccccc3)c(-c3cccc(Cl)c3Cl)s2)cc1	0.1%	.	.	-7%	?	-15	.
COC(=O)[C@H](CC(C)C)N(Cc1ccccc1)S(=O)(=O)N(Cc1ccccc1)[C@@H](CC(C)C)C(=O)OC	-0.5%&-2.5%	.	.	-10%	.	-1	.
CN1CCN(c2ccc([N+](=O)[O-])cc2NC(=O)c2ccccc2)CC1	2.1%	7%	-0.7	-1%	28	-14	11%
O=C(NCCCCc1ccccc1)c1cccc(NC(=O)C2CCC2)c1	-2.3%	.	.	-14%	.	-6	.
CC(=O)c1cccc(NC(=O)N[C@@H](CC(C)C)C(=O)O)c1	-1.9%	-10%	-1.8	7%	-4	-12	23%
CCN1CCN(/C=N/c2nc(C)cs2)CC1	-1.9%	-25%	1.1	-3%	-2	-3	1%
c1ccc(C[C@H]2CN=C(Nc3ccccc3)N2CC2CCCCCC2)cc1	-4.1%	1%	.	13%	.	-21	.
Cc1ccc(N=C(c2cccs2)N2CCOCC2)cc1	-0.2%	-3%	2.2	-12%	-10	-11	9%
O=C(NNC(=O)c1ccc(Cl)cc1Cl)c1csc(-c2cccnc2)n1	-4.6%	6%	7.5	5%	-20	-7	8%
CCc1ccc(Nc2nc(C)cc(C)n2)cc1	0.2%	-7%[15.4 µM]	-7.1	-20%	-4	-21	-11%
Cc1ccc(C(C)(C)C)cc1S(=O)(=O)Nc1cccc(C(=O)N2CCN(c3ccccn3)CC2)c1	?	-19%	.	40µM*	19	0	.
N=C1/C(=C/c2cccn2-c2cccc([N+](=O)[O-])c2)C(=O)N=C2SC=CN12	.	.	-1.6	.	16	.	10%
CC1CCCCC12NC(=O)N(CC(=O)NNC(=O)c1ccc(Br)cc1)C2=O (stereo not given)	.	?	.	5%	.	-6	.
O=Cc1ccc2ccc3cccnc3c2n1	.	22%[15.4 µM]	-15	-5%	-13	-1	-26%
Cc1ccc(-c2nc3sc4c(c3c(=O)n2N)CC(C)(C)OC4)cc1	64%	18%	2.9	-4%	-1	0	-7%
COc1cc(-c2nc3cccc(C)n3c2NCC2CCCO2)ccc1O (stereo not given)	-0.9%	7%[15.4 µM]	2.6	-20%	-9	18	-23%
Clc1ccc(-c2nc3ncccn3c2Cl)cc1	3.3%	17%	4.2	-31%	9	-5	8%
COC(=O)c1ccc(CSc2nnc(CNC(=O)c3ccc(OC)cc3)o2)o1	-2.5%	10%	1.1	-3%	6	-10	5%

Bioassay records as filed in PubChem.
